Calb biofilm kill: clotrimazole potentiators killing C. albicans biofilm, primary screen, 4-compound mixtures; C. albicans biofilm persisters + clotrimazole, fluorescence viability; primary screen in compound mixtures of four per well; inhibition, % at 7.6 µM; hit rate 0.02% among 120,000;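 active = inhibition above 30.3% in the primary screen of four-compound pools, then above 30% when the compound was retested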;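 also: compounds exposed to preformed 24 h biofilms for 48 h; the number belongs to the whole pool; some results filed as inactive read as strong as hits; inactives centre near 12; 0% = biofilm with clotrimazole alone and 100% = kill control; retested singly at about 60 µM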
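Assay system: C. albicans biofilms / Medium: RPMI/MOPS medium, pH 7.0 / Schedule: biofilm formation 24 h, compound exposure 48 h, 37 °C / Measured by: Alamar Blue fluorescence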
* hit, by the source's call.

canonical_smiles | Calb biofilm kill
Cc1cc(NC(=O)CCCSc2nc(-c3ccco3)cc(C(F)(F)F)n2)n(-c2ccccc2)n1 | 8
Cc1oc(C(C)(C)C)cc1-c1cc(NC(=O)c2ccc([N+](=O)[O-])cc2)n[nH]1 | 5
Cc1ccc(-n2c(=O)c3sccc3n(CC(=O)NC3CCCCC3)c2=O)cc1 | 12
CS(=O)(=O)N1CCN(c2ccc(NC(=O)C(c3ccccc3)c3ccccc3)cc2)CC1 | 14
O=C1C(=O)c2ccccc2C([O-])=C1[n+]1ccccc1 | 19
Cc1ccc(C(=O)N[C@@H](C)CN2C3=NC[C@H](C)N3C[C@H]2Cc2ccc(O)cc2)cc1Br | 9
Cn1cnc([N+](=O)[O-])c1Sc1ncnc2nc[nH]c12 | 14
COc1ccc(/C=C2\SC(=O)N(CCn3cnnn3)C2=O)cc1 | 0
O=C(Nc1nnc(-c2ccc(Cl)s2)o1)C1CC1 | 16
N/C(=N\OC(=O)CCCOc1ccccc1)c1ccncc1 | 16

(list continues)
canonical_smiles | Calb biofilm kill
Fc1ccc(F)c(NC(=S)NCCc2ccccc2)c1 | 34
CC1=NN(C(=O)CSCc2ccccc2)C(O)(c2ccc(F)cc2)C1 (configuration not stated) | -8
CC(C)(C)NCC(O)(c1ccc(Cl)cc1)c1ccc(Cl)cc1 | 9
CC(C)c1ccc(C(C(=O)NC2CCCCC2)N(C(=O)c2ccccn2)c2cccnc2)cc1 (configuration not stated) | 6
CCc1c(C)sc(NC(=S)N2CCN(S(C)(=O)=O)CC2)c1C(=O)OC | 16
O=C(/C=C/c1cccnc1)c1cc(F)ccc1O | 23
CCc1cc2c(=O)c(-c3nc(C)cs3)c(CCCC(=O)O)oc2cc1O | 14
CC1=C/C(=N\NC(=O)c2ccccc2)CC1 | 7
COc1ccc2no[n+]([O-])c2c1 | -3
Cc1ccc(C(=O)NNC(=O)CSc2n[nH]c(-c3cccnc3)n2)cc1 | 1

Other structures:
canonical_smiles | Calb biofilm kill
COc1ccc(NC(=O)c2ccc(Br)o2)cc1 | 13
COc1ccc(S(=O)(=O)N2CCC(N3CCN(c4ccccc4OC)CC3)CC2)cc1 | 18
CC(Oc1ccc(Br)cc1Br)C(=O)NC1CCCC1 (configuration not stated) | 19
CCc1ccccc1Nc1cc(C(=O)NCc2ccccn2)c2ccccc2n1 | 4
COC(=O)c1cccc(NC(=O)c2ccco2)c1 | 16
Cc1cc(Cl)ccc1NC(=S)NCc1ccccc1Cl | 19
Cc1ccc(N(CCC(=O)O)S(=O)(=O)c2ccccc2)cc1 | 12
O=C(CN1CCCCCC1)N1c2ccccc2Sc2ccc(C(F)(F)F)cc21 | 8
C=CCN=c1scc(-c2ccco2)n1/N=C/c1ccc(O)c(O)c1O | 1
O=C(NN=C1CCCC1)c1ccn[nH]1 | 6

Next part.
canonical_smiles | Calb biofilm kill
CC(=O)NS(=O)(=O)c1ccc(NC(=O)C2c3ccccc3Oc3ccccc32)cc1 | 14
CC1(C)CCc2cc(-c3ccnc(=S)[nH]3)ccc2O1 | 3
C=CCNC(=O)C(C(=O)OCC)C1CCCCC1 (configuration not stated) | 11
Cn1c(SCC(=O)c2c(N)n(C)c(=O)n(C)c2=O)nnc1-c1ccc(F)cc1 | 12
Cc1nc(CNS(=O)(=O)c2cc(F)ccc2F)cs1 | 3
COc1cc(OC)cc(C(=O)NNc2nc3cc4c(cc3s2)OCO4)c1 | 16
CC(C)Cc1nnc(NC(=O)c2cc(-c3ccncc3)nc3ccccc23)s1 | 15
COc1ccc(C(=O)Nc2ccc(N3CCOCC3)cc2)cc1S(=O)(=O)NC1CCCC1 | 17
Cc1ccc(Nc2nc3c(c(=O)[nH]c(=O)n3C)n2Cc2ccc(F)cc2)cc1 | 6
C/C(=N\Nc1nc2ccccc2[nH]1)c1ccc(C)o1 | 27

Continued.
canonical_smiles | Calb biofilm kill
CNS(=O)(=O)c1ccc(NCC2COc3ccccc3O2)c([N+](=O)[O-])c1 (configuration not stated) | 22
O=C(O)c1cn(Cc2ccccc2)c2ccccc2c1=O | 9
O=C(NN1C(=O)c2ccccc2NC1c1cccnc1)c1ccccc1 (configuration not stated) | 12
CCn1c(NC(=O)c2ccccc2)nc2ccccc21 | 19
CCOc1ccccc1N1CCN(CC(=O)NC(=O)NCc2ccco2)CC1 | 13
C=CCc1cc(Cl)ccc1OC(=O)Nc1cccc(Cl)c1 | 16
Cc1c(Cl)cccc1N=C(N)N=C(N)N | -5
C/C(O)=C(/C=Nc1ccccc1)C(=O)Nc1ccccc1 | 9
O=C(COC(=O)Cc1ccc(Cl)cc1)Nc1c(F)cccc1F | 11
Cc1cc(C=O)c(C)n1-c1cc(C(=O)O)cc(C(=O)O)c1 | 13

Pulled one by one from above, two records:
canonical_smiles | Calb biofilm kill
COc1ccc(NC(=O)c2ccc(Br)o2)cc1 | 13
O=C(NN=C1CCCC1)c1ccn[nH]1 | 6

Continued.
canonical_smiles | Calb biofilm kill
CC(=O)Nc1ccc(NC(=O)/C=C/c2cccc(C(F)(F)F)c2)cc1 | 11
O=S(=O)(NC1=NCCC1)c1cccc(NC(=S)NCCc2ccccc2)c1 | 17
O=C(O)COn1c(-c2ccccc2)nc2ccc([N+](=O)[O-])cc21 | 21
CCN1C(=O)/C(=C/C=C2/Sc3ccccc3N2CCO)SC1=S | 13
O=C(CCOc1ccccc1)Nc1ccccc1[N+](=O)[O-] | 13
CCS(=O)(=O)N1N=C(c2ccc(NS(C)(=O)=O)cc2)CC1c1ccccc1 (configuration not stated) | 13
COc1ccc(C2=NC(CO)(CO)CO2)cc1 | 12
CCOC(=O)c1sc(NC(=O)CCN2CCN(CC)CC2)c(C(=O)OCC)c1C | -2
Cn1cccc1/C=C1/SC(=S)N(CC(=O)O)C1=O | 8
C=CC[n+]1c(-c2ccc(Cl)cc2Cl)csc1Nc1ccc(NC(C)=O)cc1 | 15

Continuation.
canonical_smiles | Calb biofilm kill
CC(C)c1cc(=O)n2[nH]c(N)nc2n1 | 10
Cc1c(CNC2CCCC2)c(C(=O)O)c(C)n1Cc1ccccc1 | 6
CC(=O)c1ccc(N2Cc3ccccc3/C2=N\C(=O)Nc2ccc(Cl)cc2)cc1 | 18
Nc1c(C(=O)N2CCOCC2)sc2nc(N3CCOCC3)c3c(c12)CCCC3 | 4
Cc1ccnc(NC(=O)CN2C(=O)c3ccccc3C2=O)c1 | 13
CCC1Sc2ccccc2N(CC(=O)NC2CC2)C1=O (configuration not stated) | 17
CCCCCC(=O)NNC(=O)Nc1ccccc1 | 12
COc1ccc2nc(NNC(=O)COc3ccccc3)sc2c1 | -1
O=S(=O)(NC1CC1)c1ccc(S(=O)(=O)N(Cc2ccccn2)C2CC2)cc1 | 22
COc1ccc(Cc2nnc(Nc3c(C)cccc3C)o2)cc1OC | 15

(continued)
canonical_smiles | Calb biofilm kill
CCCn1c(N/N=C(C)\C=C\c2ccccc2)nc2c1c(=O)[nH]c(=O)n2C | 10
CSc1nc2ncnc(N)c2[nH]1 | 27
CCN(CC)C(=O)c1ccccc1NC(=O)CN1C(=O)c2ccccc2C1=O | 10
C=CCn1c(COc2cc(C)ccc2C(C)C)nnc1SCC(=O)c1c(N)n(C)c(=O)n(C)c1=O | 0
O=C(O)C(Cc1cc(Cl)ccc1Cl)Sc1nc2ccccc2[nH]1 (configuration not stated) | 21
Cc1c(Cl)cccc1NC(=O)CCCn1nc([N+](=O)[O-])cc1C | 11
O=C(CCn1nc(-c2ccccc2)c2ccccc2c1=O)Nc1cccnc1 | 13
O/N=C/c1cn(-c2ccc(Cl)cc2)nn1 | 8
CN(C)S(=O)(=O)N1CCC(CO)(Cc2cccc(C(F)(F)F)c2)CC1 | 6
COc1ccc2oc(=O)c(C(=O)NCc3ccccn3)cc2c1 | 8

A stretch from further up, as a working copy:
canonical_smiles | Calb biofilm kill
O=C(O)C(Cc1cc(Cl)ccc1Cl)Sc1nc2ccccc2[nH]1 (configuration not stated) | 21
Cc1c(Cl)cccc1NC(=O)CCCn1nc([N+](=O)[O-])cc1C | 11
O=C(CCn1nc(-c2ccccc2)c2ccccc2c1=O)Nc1cccnc1 | 13
O/N=C/c1cn(-c2ccc(Cl)cc2)nn1 | 8

New compounds follow.
canonical_smiles | Calb biofilm kill
O=C(Nc1ccc(Cl)cc1)c1ccc(Br)cc1F | 16
CN(C)CCOC(c1ccc(Cl)cc1)c1ccccn1 (configuration not stated) | 2
COc1cc(C=C2C(=O)OC(C)(C)OC2=O)ccc1OCC(=O)Nc1ccccc1 | 14
O=C(COC(=O)c1cc(S(=O)(=O)NCc2ccccc2)ccc1O)c1cc2ccccc2o1 | 23
COCC(=O)Nc1cc(Cl)ccc1C | 4
Cn1cc(S(=O)(=O)N2CCCC(C(=O)O)C2)cn1 (configuration not stated) | 14
CCCCn1ccnc1C(=O)c1ccc(S(=O)(=O)N2CCCC2)cc1 | 16
C=CCNC(=O)Nc1ccc2nc(C)sc2c1 | 3
O=c1[nH]c2ccc(NC(=S)Nc3ccc(F)cc3)cc2[nH]1 | 5
Cn1c(=O)cc(SCC(=O)NCCC2=CCCCC2)c2cc(Cl)ccc21 | 6

The listing continues:
canonical_smiles | Calb biofilm kill
CC(C)[C@H](NC(=O)c1ccco1)C(=O)OCC(=O)N1CC(=O)Nc2ccccc21 | -1
Nc1nc(N2CCN(C(=O)c3ccco3)CC2)nc2ccccc12 | 12
O=C(CSc1nc2cc(Cl)ccc2s1)NC1CCCc2ccccc21 (configuration not stated) | 5
COC(=O)Nc1nnc(/C=C/c2ccccc2)s1 | 8
CCN(CC)S(=O)(=O)c1ccc(/C=C/C(=O)Nc2ccc(F)cc2F)cc1 | 12
O=c1cc(/N=C/c2coc3cc(Br)ccc3c2=O)[nH]c(=S)[nH]1 | 10
COC(=O)Cc1ccc(NC(=S)N2CCN(c3cccc(O)c3)CC2)cc1 | 0
CC(C)C(=O)NC(NC(=S)Nc1ccc(S(N)(=O)=O)cc1)C(Cl)(Cl)Cl (configuration not stated) | 10
CC(C(=O)N1CCN=C1c1ccccc1)N1C(=O)c2ccccc2C1=O (configuration not stated) | 0
O=C(CNS(=O)(=O)c1ccccc1)NCC(=O)OCc1ccc(Cl)cc1 | 17

Going on with the list:
canonical_smiles | Calb biofilm kill
O=C(O)[C@H]1CCCC[C@H]1C(=O)Nc1cc([N+](=O)[O-])ccc1F | 21
COc1cccc(CNCCc2c[nH]c3ccccc23)c1OCc1ccccc1 | -3
CCOC(=O)C(=CNc1ccc(Cl)cn1)C(=O)OCC | 12
Cc1ccc2c(c1)C(O)(CC(=O)c1cccc(-n3cccc3)c1)C(=O)N2 (configuration not stated) | 19
O=C(c1ccccc1)N1CCN(c2ncnc3c(-c4ccccc4)nsc23)CC1 | 10
COc1ccc(C2N=C(c3ccccc3)NC(c3ccccc3)=N2)cc1 | 9
Cn1cc(CCNCc2cn[nH]c2-c2ccc(-c3ccccc3)cc2)cn1 | 18
CN(C(=O)Cc1c[nH]c2ccccc12)C(C(=O)Nc1ccc2c(c1)OCO2)c1ccccc1 (configuration not stated) | 17
COc1ccc(Cc2nnc(NC(=O)c3ccccc3[N+](=O)[O-])s2)cc1 | 8
COc1cc(-c2nnc(CSc3nnc(N)s3)o2)cc(OC)c1OC | -11

(list continues)
canonical_smiles | Calb biofilm kill
CCOC(=O)c1cc(-c2ccccc2)sc1NC(=O)COC(=O)c1cccc(S(N)(=O)=O)c1 | 0
Cc1ccc(Nc2nc3ccccc3[nH]2)nc1 | 17
CCOc1ccc(C(=O)NCCC2=CCCCC2)cc1OCC | 21
Cc1ccc2cccc(OCC(=O)N3CCc4ccccc43)c2n1 | 7
O=C(OC1C2CCC1C1CN(CCc3ccccc3)CC12)c1ccccc1 (configuration not stated) | 19
COc1ccc(N=Cc2c(C)[nH][nH]c2=O)cc1 | 19
COc1ccccc1-c1csc(NC(=O)c2cc(-c3cccs3)nc3ccccc23)n1 | 17
Cc1ccc(S(=O)(=O)NCC(=O)NCC(=O)OCC(=O)N2CC(=O)Nc3ccccc32)cc1C | 8
NC(=O)NC(=O)COC(=O)c1cccnc1Nc1ccccc1F | 22
Cc1onc(-c2ccccc2)c1C(=O)c1ccccc1 | 16

The listing continues:
canonical_smiles | Calb biofilm kill
COc1ccc(C2OC[C@H]3O[C@H](O)[C@H](NC(C)=O)[C@@H](O)[C@@H]3O2)cc1 (some centres not stated) | 54
CNc1ccncc1S(=O)(=O)NC | 21
CC1CCCC/C1=N\NC(=S)Nc1ccccc1 (configuration not stated) | 10
O=C(CCc1ccccc1)N1CCN(c2ccccc2F)CC1 | 21
Cc1cccc(N(C(=O)CNC(=O)c2ccco2)C(C(=O)NC2CCCC2)c2ccncc2)c1 (configuration not stated) | 9
CC(C)CC(=O)Nc1cccc(NC(=O)c2ccccc2Cl)c1 | 7
O=C(CSc1cccc2cccc(Cl)c12)NC1=NCCS1 | 12
COc1ccc(C(C(=O)NC2CCCCC2)N(C(=O)Cc2c[nH]c3ccccc23)c2ccccc2)cc1OC (configuration not stated) | 9
CN1CCC(N(C)C(=O)CNC(=O)c2ccc(C(C)(C)C)cc2)CC1 | 20
Oc1ccc(CN2CCC(Cc3ccccc3)CC2)c2cccnc12 | 8

Other records follow.
canonical_smiles | Calb biofilm kill
Cc1c(Cl)cccc1NC(=O)Nc1ccn(C)n1 | 10
CCCc1nc2ccccc2c(C(=O)OCC(=O)Nc2c(C)n(C)n(-c3ccccc3)c2=O)c1CC | 26
c1ccc(CCNc2nc(-c3ccncc3)nc3ccccc23)cc1 | 29
Cc1sc2ncnc(SCC(=O)Nc3nc(-c4ccc(F)c(F)c4)cs3)c2c1C | 18
COc1ccc(-c2nnc(SCC(=O)c3ccc[nH]3)n2-c2ccccc2)cc1 | 9
COc1ccc(S(=O)(=O)N2CCCCC2)cc1NC(=O)c1ccc(=O)[nH]c1 | 13
COP(=O)(OC)C(NC(=O)Nc1ccccc1)c1ccccc1 (configuration not stated) | 11
COc1ccccc1NC(=S)NC(NC(=O)CC(C)C)C(Cl)(Cl)Cl (configuration not stated) | 19
CC1(C)NC(=O)N(CC(O)COc2ccccc2[N+](=O)[O-])C1=O (configuration not stated) | 15

Source: PubChem BioAssay

The list is partial; rates above refer to the full screens.
